GPR55 beta-arrestin: GPR55 agonists via beta-arrestin recruitment, primary screen, imaging, U2OS cells, beta-arrestin-GFP redistribution (AID 1961). U2OS GPR55 beta-arrestin-GFP redistribution imaging; higher % means a stronger effect. activation, % at 10 µM; hits with a dose series show EC50 in µM. hit rate 0.048% among 290,000;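 active = activation above 40% with more than 50 cells counted in the well; inconclusive = wells holding fewer than 50 cells, flagged as toxic or sparse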;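 note: U2OS osteosarcoma cells stably expressing GPR55 and beta-arrestin-GFP; plate controls were DMSO negative control for no effect and LPI positive control for full effect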
GPR55 LPI antagonism: inhibition of LPI-stimulated GPR55 beta-arrestin translocation – imaging, U2OS, beta-arrestin-GFP, LPI agonist, primary screen (AID 2013) | hit rate 0.13% among 290,000 | U2OS GPR55 beta-arrestin-GFP translocation imaging, LPI antagonism; higher % means a stronger effect | one-dose inhibition, % at 10 µM; IC50 in µM for titrated hits;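 active = spots per cell inhibited over 60%, with over 100 cells counted and total cytoplasm intensity under 500,000; inconclusive = wells with under 100 cells, flagged as likely toxic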;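 note: U2OS cells stably carrying GPR55 and arrestin-GFP stimulated by 5 µM LPI near EC80; imaged beta-arrestin-GFP aggregate spots per cell after agonist stimulation; plate controls were LPI-stimulated DMSO wells for no effect and DMSO wells without LPI for full effect; some results filed as inactive read as strong as hits; confirmed hits need IC50 under 10 µM and bright autofluorescent wells are also inconclusive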
Large T inhibition: SV40 large T antigen inhibitors, biochemical (AID 1903) | SV40 large T antigen ATPase/helicase inhibition assay; higher % means a stronger effect | inhibition, % at 20 µM; hits with a dose series show IC50 in µM | hit rate 0.39% among 310,000; in the data active = a potency from the dose series; inconclusive = inhibition mostly from about 32% at the one dose, without a potency; inactive = the rest, 99 in 100 with inhibition below about 32%; note: strong numbers were not always called active
KOR beta-arrestin-1: kappa opioid receptor blockers – cell-based, luminescence, uHTS (AID 1778) | inhibition, % at 10 µM; hits with a dose series show IC50 in µM | KOR beta-arrestin recruitment, luminescence, antagonist mode; higher % means a stronger effect | hit rate 0.091% among 290,000; in the data active = inhibition above about 50%; note: strong numbers were not always called active
HIV peptide binding: cell-free HIV fusion peptide-binding blockers – biochemical, uHTS, fluorescence dequenching, primary screen (AID 1986) | cell-free peptide binding, fluorescence dequenching, 30 min; higher % means a stronger effect | inhibition, % at 20 µM; hits with a dose series show IC50 in µM | hit rate 0.3% among 290,000; in the data active = inhibition mostly above about 52%, no sharp cut-off; inactive = mostly below about 76%; note: some results filed as inactive read as strong as hits
Rac1 GTP hydrolysis: MgcRacGAP GTPase-activating activity inhibitors, confirmation, biochemical, ADP Hunter fluorescence | MgcRacGAP-stimulated Rac1 GTP hydrolysis, ADP Hunter fluorescence; higher % means a stronger effect; GST-tagged Rac1 F28L mutant substrate | inhibition, % at 30 µM; hits with a dose series show IC50 in µM | hit rate 0.6% among 340,000;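 active = first-screen hits whose inhibition reached a set limit at any dose in the follow-up dose series; inconclusive = inhibition above the set first-screen limit but never retested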;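 note: fluorescence reports GDP produced by GAP-driven GTP hydrolysis; strong numbers were not always called active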
KOR beta-arrestin-2: kappa opioid receptor activators – cell-based, luminescence, uHTS, primary screen (AID 1777); hit rate 0.02% among 280,000; activation, % at 10 µM, or EC50 in µM where a hit was titrated; KOR beta-arrestin recruitment, luminescence; higher % means a stronger effect; in the data active = activation above about 50%, passing the limit was not always enough; note: a part of the inactive calls stands beside numbers as strong as those of hits
Starred values were filed as active, the others as inactive; ? = inconclusive; / = no result given; & = joins results of further samples; [ ] = another dose, or the depositor's remark. Only part of the results is shown. The share of hits here may be higher or lower than overall.

(1) COc1ccc(N2CCN(S(=O)(=O)c3ccc4c(c3)NC(=O)C(C)S4)CC2)cc1 (centres undefined)
(2) C/C(=N\NC(=O)c1cc(Cl)ccc1O)c1ccc(Br)s1
(3) O=[N+]([O-])c1ccc(O)c(Nc2ncnc3ccc(Br)cc23)c1
(4) Fc1ccc2[nH]c3c(N4CCc5ccccc5C4)ncnc3c2c1
(5) C=CCC1(CC=C)CCCN1C(=O)c1cc(COc2ccc(C)nc2)on1
(6) Cn1c(N2CCN(c3ccccn3)CC2)nc2c1c(=O)n(Cc1ccc(Cl)cc1)c(=O)n2C
Compound	1	2	3	4	5	6
GPR55 beta-arrestin	0.0%	1.2%	-0.2%	0.2%	-0.1%	1.2%
GPR55 LPI antagonism	-2.6%	-1.7%	-4.0%	1.8%	1.7%	-8.1%
Large T inhibition	21.8%	9.5%	10.2%	19.2%	18.2%	2.6%
KOR beta-arrestin-1	-36.4%	0.9%	-13.3%	-16.1%	-23.1%	-30.7%
HIV peptide binding	-3.2%	6.1%	11.8%	-2.7%	1.5%	-0.4%
Rac1 GTP hydrolysis	11.0%	7.3%	13.5%	/	1.4%	8.3%
KOR beta-arrestin-2	2.2%	-2.0%	-7.7%	11.5%	-2.4%	3.9%

(7) c1ccc(-c2csc3ncnc(NCc4ccccn4)c23)cc1
(8) Cc1cccc(Nc2nc(N)nc(CCl)n2)c1C
(9) CCN1/C(=C\C=C\C2=[N+](CC)c3ccccc3C2(C)C)C(C)(C)c2ccccc21
(10) C=C1C(=O)O[C@H]2C[C@@H](C)[C@@H]3C=CC(=O)[C@@]3(C)C[C@H]12
(11) O=C(Nc1nc2c(Cl)cccc2s1)c1ccc([N+](=O)[O-])o1
(12) Cc1ccc(/C=C2\C(=O)NC(=S)N(c3ccccc3F)C2=O)s1
Compound	7	8	9	10	11	12
GPR55 beta-arrestin	0.7%	2.3%	-0.1%	-0.1%	-0.2%	-0.1%
GPR55 LPI antagonism	-10.0%	-3.5%	?	26.4%	-17.3%	24.2%
Large T inhibition	9.2%	12.4%	19.3%	8.4%	8.5%	17.3%
KOR beta-arrestin-1	-3.9%	-10.9%	-12.0%	10.2%	-43.9%[20 µM]	-9.0%
HIV peptide binding	-1.9%	-0.1%	0.5%	1.2%	23.7%	26.5%
Rac1 GTP hydrolysis	12.3%	/	-33.6%	/	4.4%	28.7%
KOR beta-arrestin-2	4.2%	-0.4%	-8.9%	1.7%	-2.0%	-1.9%

(13) O=C(Nc1ccc([N+](=O)[O-])cc1)Nc1ccc(Cl)cc1F
(14) CCN(CC)S(=O)(=O)c1cccc(NC(=O)c2ccc(Br)cc2)c1
(15) CSc1ccccc1OCc1cc(C(=O)N2CCC(c3ccncc3)CC2)no1
(16) COc1cc(C(=O)NCCOc2cc(C)ccc2C(C)C)cc(OC)c1OC
(17) C[C@@H]1O[C@@H](O[C@H]2C[C@@H](O)[C@]3(CO)[C@H]4[C@H](O)C[C@]5(C)[C@@H](C6=CC(=O)OC6)CC[C@]5(O)[C@@H]4CC[C@]3(O)C2)[C@H](O)[C@H](O)[C@H]1O
(18) N#Cc1c(-c2ccccc2)nc(SCc2cccc(C(F)(F)F)c2)[nH]c1=O
Compound	13	14	15	16	17	18
GPR55 beta-arrestin	1.3%	-0.4%	0.3%	0.0%	0.1%	0.7%
GPR55 LPI antagonism	3.2%	3.8%	13.2%	-5.6%	8.7%	4.9%
Large T inhibition	-6.3%	5.3%	9.5%	8.0%	6.8%&-1.8%	10.5%
KOR beta-arrestin-1	-24.6%	15.2%	21.1%	-27.1%	-311.4%	2.9%
HIV peptide binding	-1.8%	0.6%	-1.7%	1.2%	1.1%	10.4µM*
Rac1 GTP hydrolysis	7.3%	7.7%	5.6%	12.1%	2.6%	6.0%
KOR beta-arrestin-2	-1.8%	-6.6%	-2.6%	-2.0%	22.1%	-1.7%

As a short view, part of the list above:
(7) c1ccc(-c2csc3ncnc(NCc4ccccn4)c23)cc1
(8) Cc1cccc(Nc2nc(N)nc(CCl)n2)c1C
(9) CCN1/C(=C\C=C\C2=[N+](CC)c3ccccc3C2(C)C)C(C)(C)c2ccccc21
(10) C=C1C(=O)O[C@H]2C[C@@H](C)[C@@H]3C=CC(=O)[C@@]3(C)C[C@H]12
(11) O=C(Nc1nc2c(Cl)cccc2s1)c1ccc([N+](=O)[O-])o1
(12) Cc1ccc(/C=C2\C(=O)NC(=S)N(c3ccccc3F)C2=O)s1
(13) O=C(Nc1ccc([N+](=O)[O-])cc1)Nc1ccc(Cl)cc1F
(14) CCN(CC)S(=O)(=O)c1cccc(NC(=O)c2ccc(Br)cc2)c1
Compound	7	8	9	10	11	12	13	14
GPR55 beta-arrestin	0.7%	2.3%	-0.1%	-0.1%	-0.2%	-0.1%	1.3%	-0.4%
GPR55 LPI antagonism	-10.0%	-3.5%	?	26.4%	-17.3%	24.2%	3.2%	3.8%
Large T inhibition	9.2%	12.4%	19.3%	8.4%	8.5%	17.3%	-6.3%	5.3%
KOR beta-arrestin-1	-3.9%	-10.9%	-12.0%	10.2%	-43.9%[20 µM]	-9.0%	-24.6%	15.2%
HIV peptide binding	-1.9%	-0.1%	0.5%	1.2%	23.7%	26.5%	-1.8%	0.6%
Rac1 GTP hydrolysis	12.3%	/	-33.6%	/	4.4%	28.7%	7.3%	7.7%
KOR beta-arrestin-2	4.2%	-0.4%	-8.9%	1.7%	-2.0%	-1.9%	-1.8%	-6.6%

(15) CSc1ccccc1OCc1cc(C(=O)N2CCC(c3ccncc3)CC2)no1
(16) COc1cc(C(=O)NCCOc2cc(C)ccc2C(C)C)cc(OC)c1OC
(17) C[C@@H]1O[C@@H](O[C@H]2C[C@@H](O)[C@]3(CO)[C@H]4[C@H](O)C[C@]5(C)[C@@H](C6=CC(=O)OC6)CC[C@]5(O)[C@@H]4CC[C@]3(O)C2)[C@H](O)[C@H](O)[C@H]1O
(18) N#Cc1c(-c2ccccc2)nc(SCc2cccc(C(F)(F)F)c2)[nH]c1=O
Compound	15	16	17	18
GPR55 beta-arrestin	0.3%	0.0%	0.1%	0.7%
GPR55 LPI antagonism	13.2%	-5.6%	8.7%	4.9%
Large T inhibition	9.5%	8.0%	6.8%&-1.8%	10.5%
KOR beta-arrestin-1	21.1%	-27.1%	-311.4%	2.9%
HIV peptide binding	-1.7%	1.2%	1.1%	10.4µM*
Rac1 GTP hydrolysis	5.6%	12.1%	2.6%	6.0%
KOR beta-arrestin-2	-2.6%	-2.0%	22.1%	-1.7%

(continued)
(19) COc1ccc(C(C(=O)NC2CCCCC2)N(C(=O)CCl)c2ccc(C)cc2)cc1 (centres undefined)
(20) CCOC(=O)N(c1ccccc1)P1(=S)OCCO1
(21) Nc1[nH]nc2ncc3cc4ccccc4nc3c12
(22) COc1ccc(NS(=O)(=O)c2ccc3c(c2)Cc2ccccc2-3)cn1
(23) O=C1C=C(Nc2ccccc2O)c2ccccc2C1=O
(24) COc1ccccc1NS(=O)(=O)c1cccc(NC(=O)c2ccc3ccccc3n2)c1
(25) CCCCCn1c(=O)c(C(=O)Nc2cnccn2)c(O)c2ccccc21
Compound	19	20	21	22	23	24	25
GPR55 beta-arrestin	0.2%	0.0%	0.3%	0.6%	0.2%	-0.1%	0.0%
GPR55 LPI antagonism	9.1%	5.4%	-20.3%	-8.1%	-14.7%	18.3%	-1.2%
Large T inhibition	6.8%	17.6%	2.6%	0.9%	2.2%	-1.0%	-0.8%
KOR beta-arrestin-1	2.8%	-1.3%	-66.9%[20 µM]	9.1%	-5.9%	-2.4%	-75.4%[20 µM]
HIV peptide binding	1.1%	3.0%	-3.0%	1.1%	5.0%	2.6%	3.8%
Rac1 GTP hydrolysis	7.4%	19.7%	13.8%	8.5%	14.8%	1.0%	4.6%
KOR beta-arrestin-2	8.8%	2.6%	-1.2%	4.3%	4.2%	-2.8%	-6.1%
